RecA splice inh: inhibitors of M. tuberculosis RecA intein splicing | P9WHJ3 | cell-free RecA intein splicing, fluorescence | inhibition, %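 (about 9 µM by stock and volumes)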 | 290,000 tested, 0.75% active | AID 2221; in the data active = inhibition above about 30%;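 note: 0% = vehicle wells and 100% = reference inhibitor control wells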
Target sequence (P9WHJ3 whole entry, looked up, canonical isoform): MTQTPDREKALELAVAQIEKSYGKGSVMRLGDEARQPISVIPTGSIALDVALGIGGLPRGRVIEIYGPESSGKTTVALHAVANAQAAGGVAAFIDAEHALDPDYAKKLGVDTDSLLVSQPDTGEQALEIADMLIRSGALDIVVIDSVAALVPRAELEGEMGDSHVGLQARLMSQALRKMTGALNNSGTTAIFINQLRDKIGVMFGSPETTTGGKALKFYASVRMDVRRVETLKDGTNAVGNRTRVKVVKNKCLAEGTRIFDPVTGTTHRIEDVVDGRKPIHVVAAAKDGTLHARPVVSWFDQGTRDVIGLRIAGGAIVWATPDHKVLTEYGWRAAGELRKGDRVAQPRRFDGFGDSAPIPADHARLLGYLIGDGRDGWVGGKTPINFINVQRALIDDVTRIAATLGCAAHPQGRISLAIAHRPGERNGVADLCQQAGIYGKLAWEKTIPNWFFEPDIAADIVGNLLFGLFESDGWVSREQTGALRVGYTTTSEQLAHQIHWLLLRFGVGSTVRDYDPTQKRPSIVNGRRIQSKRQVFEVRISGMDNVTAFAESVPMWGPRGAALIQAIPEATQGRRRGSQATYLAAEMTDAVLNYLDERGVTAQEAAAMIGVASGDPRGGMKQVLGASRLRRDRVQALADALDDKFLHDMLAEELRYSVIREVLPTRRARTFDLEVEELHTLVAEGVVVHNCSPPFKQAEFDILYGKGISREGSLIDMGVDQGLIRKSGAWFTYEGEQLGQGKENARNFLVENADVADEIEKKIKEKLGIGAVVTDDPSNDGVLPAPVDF
Arbovirus anti: antivirals against arbovirus infection | arbovirus infection cell-based antiviral screen | 200,000 tested, 0.37% active | inhibition, % at 10 µM | AID 1251;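 active = inhibition from about 30%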;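 note: bluetongue infection of BSR cells; cell survival read as ATP light after 72 h; 0% = infected wells without compound and 100% = uninfected wells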
Mtb bLac sens: beta-lactam sensitization of Mtb H37Rv. inhibition, % at 25 µM. 330,000 tested, 0.27% active. M. tuberculosis H37Rv growth with meropenem, percent inhibition; hits of this screen are not shown here;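 active = about 74% or more and at least 40 points above the plate without the antibiotic, then above 30% in a dose series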;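 note: growth measured after seven days incubation then overnight dye step; 0% = bacteria only wells and 100% = bacteria with antibiotic; twin plates without the antibiotic show which effects depend on it; some results filed as inactive read as strong as hits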
Mtb H37Rv: M. tuberculosis H37Rv growth inhibitors, H37Rv strain (AID 1626) | M. tuberculosis H37Rv growth inhibition; higher % means a stronger effect | inhibition, % at 10 µM, or IC50 in µM where a hit was titrated | 220,000 tested, 0.95% active;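 active = confirmed in a dose series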;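 note: bacteria incubated seven days before Alamar blue readout; 0% = bacteria only wells and 100% = bacteria with antibiotic wells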
YopH PTP inh: blocks Yersinia enterocolitica YopH tyrosine phosphatase | fluorescence Ex485/Em525 | 140,000 tested, 0.16% active | inhibition, %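 (about 10 µM by stock and volumes)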 | AID 898;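 active = inhibition of 50% or more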;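 note: controls were vehicle for no effect and minimum signal wells for full effect; inactives centre near -20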
Arbovirus anti repeat: further read-out of Arbovirus anti, marked with its call; inhibition, %; measured here: 10K subset replicate screen; many hits read low in the repeat;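 first of two repeat runs on a subset; 0% = infected and 100% = uninfected wells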
* = called active by the depositor; x = no result given; & = joins results of further samples. A portion of the library. The share of hits here may be higher or lower than overall.

SMILES | RecA splice inh | Arbovirus anti | Mtb bLac sens | Mtb H37Rv | YopH PTP inh | others
COc1ccc(/C=C/C(=O)NC(=S)NNC(=O)c2ccco2)cc1 | 2.5 | -16 | -7 | 1% | -3
CCCn1nnnc1SCC(=O)NCc1ccccc1 | 0.9 | 4 | -6 | -5% | -6
CCCn1c(SCC(=O)Nc2ccc(NC(=O)CC)cc2)nc2c1c(=O)n(C)c(=O)n2C | 0.6 | x | 2 | x | x
O=C(NC1=NCCS1)C1CC(=O)N(c2ccc(Cl)cc2)C1 (stereo not given) | -2.2 | 0 | -5 | -5% | x
O=C(NN1C(=O)c2ccccc2C1=O)C1CC2CCC1C2 (stereo not given) | -2.4 | -11 | 0 | 0% | -26
c1ccc(-c2ccccc2OCCn2cncn2)cc1 | 2.1 | 5 | 5 | 0% | -35
CC(C)C(=O)Nc1cccc(NC(=O)c2ccc(Cl)cc2Cl)c1 | -3.1 | -4 | -7 | 9% | -34
CC(=O)Nc1ccc(Cc2ccncc2)cc1 | 2.0 | 2 | 0 | -12% | -12
O=C1CC(SCCO)C(=O)N1c1ccccc1 (stereo not given) | 0.1 | 4 | -10 | -8% | -21
O=C(CSc1nnc(-c2ccco2)o1)c1ccc(O)cc1O | 2.5 | 13 | -5 | -4% | x
CC(=O)N/C(=C\c1ccccc1)C(=O)OCC(=O)NC1CCCC1 | 0.4 | 2 | -7 | -7% | -4
COc1ccc(COCC(O)CN(Cc2ccccc2)C(C)C)cc1OC (stereo not given) | 2.9 | 3 | 0 | 1% | x
CCc1c(C(=O)N2CCCN(C)CC2)csc1C | -0.3 | x | -12 | x | x
COc1ccc(C(=O)NC(=S)N2CCOCC2)cc1Br | -4.2 | x | 53 | x | x
CC(=O)c1ccc(-c2nnc(CCC(=O)N(C)Cc3cnc4ccccn34)o2)s1 | 0.8 | -1 | 1 | -8% | x
O=S(=O)(NN=C1CCCCC1)c1ccccc1 | -4.2 | -5 | 9 | 2% | x
O=C(/C=C/c1ccccc1Cl)Nc1ccc(Cl)cn1 | 0.1 | 1 | 0 | -5% | x
OCC[C@@H]1C[C@H](O)[C@@H](O)[C@]2(CCCc3ccccc3O2)O1 | -0.6 | x | 0 | x | x
C=CCOc1ccccc1CN1CCCCCC1 | -2.5 | x | -1 | x | x
CCCCCOc1ccc(Cl)cc1CN1CCOCC1 | 4.3 | -7 | 6 | 0% | -5
Brc1ccc(-c2nc(-c3ccccc3)no2)o1 | x | 5 | 4 | -9% | -10
O=C(NCCc1ccccc1)c1n[nH]c(=O)c2ccccc12 | 0.1 | -6 | -6 | -1% | x
CC(=O)c1sc(NC(=O)C2CC(=O)N(Cc3ccco3)C2)nc1-c1ccccc1 (stereo not given) | -8.6 | x | -6 | x | x
O=C(NNC(=O)c1cc([N+](=O)[O-])ccc1Cl)c1cccs1 | 0.6 | 2 | -1 | -1% | -5
Cc1cc(/C=C(\C#N)C(=O)NCc2ccco2)c(C)[nH]1 | -0.2 | -26 | -7 | 3% | -22
Cc1c(-c2ccc(Br)cc2)nc2ccccn12 | 1.3 | 12 | -2 | 1% | -14
CCCCc1nnc(NC(=O)C23CC4CC(CC(NC(C)=O)(C4)C2)C3)s1 | -0.9 | x | 0 | x | x
Clc1ccc2nc(N3CCNCC3)nc(-c3ccccc3)c2c1 | -294 | -32 | -9 | -2% | -35
CC[C@H](C)C(=O)O[C@H]1CCC=C2C=C[C@H](C)[C@H](CC[C@@H]3C[C@@H](O)CC(=O)O3)[C@H]21 | 2.0 | -6&-10 | 7 | 1%&1% | x
COc1cccc(/C=N/n2c(-c3cc(C)[nH]n3)n[nH]c2=S)c1 | x | x | 1 | -4% | x
CCCCN1C(=O)C2Cc3c([nH]c4ccccc34)CN2C1=S (stereo not given) | -5.0 | 10 | 6 | -6% | x
Cc1nc([N+](=O)[O-])cn1CC(O)c1ccc(Cl)cc1 (stereo not given) | -2.1 | x | -7 | -12% | x
Cc1cccc(-n2c(CNC(=O)c3ccc(S(=O)(=O)N(C)C)cc3)nnc2SCC(=O)Nc2ccc(F)cc2)c1 | 1.1 | -10 | 4 | -1% | -26
CSc1ccccc1C(=O)N1CCN(c2ccc(F)cc2)CC1 | -2.0 | -5 | 7 | -3% | -6
CC1(C)Cc2cccc(Oc3ccc(S(=O)(=O)N4CCCCC4)cn3)c2O1 | -1.6 | -2 | -4 | 5% | x
Oc1ccc(Br)cc1C1Nc2ccccc2S1 (stereo not given) | -6.0 | x | 10 | x | x

Copied from above, 2 compounds:
SMILES | RecA splice inh | Arbovirus anti | Mtb bLac sens | Mtb H37Rv | YopH PTP inh | others
Cc1cc(/C=C(\C#N)C(=O)NCc2ccco2)c(C)[nH]1 | -0.2 | -26 | -7 | 3% | -22
Cc1c(-c2ccc(Br)cc2)nc2ccccn12 | 1.3 | 12 | -2 | 1% | -14

Arranged by length of the SMILES (low to high): 5 of the compounds above.
SMILES | RecA splice inh | Arbovirus anti | Mtb bLac sens | Mtb H37Rv | YopH PTP inh | others
Oc1ccc(Br)cc1C1Nc2ccccc2S1 (stereo not given) | -6.0 | x | 10 | x | x
Clc1ccc2nc(N3CCNCC3)nc(-c3ccccc3)c2c1 | -294 | -32 | -9 | -2% | -35
COc1cccc(/C=N/n2c(-c3cc(C)[nH]n3)n[nH]c2=S)c1 | x | x | 1 | -4% | x
CCCCc1nnc(NC(=O)C23CC4CC(CC(NC(C)=O)(C4)C2)C3)s1 | -0.9 | x | 0 | x | x
CC[C@H](C)C(=O)O[C@H]1CCC=C2C=C[C@H](C)[C@H](CC[C@@H]3C[C@@H](O)CC(=O)O3)[C@H]21 | 2.0 | -6&-10 | 7 | 1%&1% | x

Remaining list, next part:
SMILES | RecA splice inh | Arbovirus anti | Mtb bLac sens | Mtb H37Rv | YopH PTP inh | others
Cc1ccc(CNC(=O)Cn2c(=O)n(-c3ccccc3)c(=O)c3sccc32)cc1 | -1.0 | 9 | -1 | 0% | x
CCOC(=O)c1[nH]ncc1CN1CCC(Cc2cccc(OC)c2)(C(=O)OCC)CC1 | 0.3 | x | 1 | -10% | x
O=C(NC1CCCCC1)c1ccc(-c2ccccc2)cc1 | 0.6 | x | -6 | x | x
O=CC1=C(N2CCOCC2)/C(=C\c2ccccc2)CC1 | 0.7 | 2 | -1 | 1% | x
Cc1ccc(CNCC(O)(c2ccccc2)c2ccc(F)cc2)cc1 (stereo not given) | 3.2 | 19 | 6 | x | -3
CCC(c1nnnn1CCOC)N1CCN(Cc2ccccc2OC)CC1 (stereo not given) | 1.2 | 3 | 5 | 5% | 8
Cn1c(SCC(=O)N2CCc3ccccc32)nnc1C1CC1 | -1.7 | 6 | -3 | x | -38
Cc1cc(N2C(=O)C3C4CC(C(Br)C4Br)C3C2=O)no1 (stereo not given) | 0.0 | 3 | -2 | 2% | -16
CCCN(CC(=O)Nc1ccccc1OC)C(=O)CSc1nc(C)cc(C)n1 | 0.4 | x | 0 | x | x
CCOc1cccc(C2C(C(=O)c3ccc(C)o3)=C(O)C(=O)N2CCCn2ccnc2)c1 (stereo not given) | 1.1 | x | -8 | x | x
O=C(N/N=C/c1cccnc1)/C(=C\c1cccs1)NC(=O)c1ccccc1 | 1.7 | -10 | -1 | -5% | -29
CC1CCc2nc(NCCO)nc(C(F)(F)F)c2C1 (stereo not given) | -0.2 | 4 | -12 | -7% | 4
C=CCCC(=O)N1CCC(n2nccc2NC(=O)c2ccc(OC)cc2)CC1 | -1.7 | x | 5 | x | x
Cc1ccc(C(=O)N2CCN(c3ccc(Cl)cc3)CC2)cc1 | 6.0 | 6 | -7 | -14% | -7
O=C(COC(=O)C1CCC(=O)N1)Nc1ccc(Br)cc1 (stereo not given) | x | -1 | -9 | -16% | -7
CCOC(=O)N1CCN(C(=O)c2cccc(NC3=NC4CS(=O)(=O)CC4S3)c2)CC1 (stereo not given) | -1.3 | 3 | 3 | 2% | -35
COc1ccc(/C=C(\C#N)C(=O)Nc2cccc(C)n2)cc1 | -0.6 | x | -4 | x | x
Cn1cnc([N+](=O)[O-])c1S(=O)(=O)c1cccc(Cl)c1 | 61* | -27 | 100 | 11µM* | -16
CC1CN(C(=O)Nc2cccc(C(F)(F)F)c2)CC(C)O1 (stereo not given) | 0.7 | 28 | -4 | 20% | x
COCCCNC(=S)Nc1ccc(C)cc1 | -2.0 | x | -4 | -4% | x
Cc1nc(C(=O)NCC(=O)c2ccccc2)c(C(F)(F)F)o1 | 2.4 | x | 1 | -8% | x
Cn1c(=O)n(C)c2cc(/C=N/NC(=O)c3cc4cc(Br)ccc4o3)ccc21 | -18 | x | 0 | 8% | x
CC1(C)COC(c2cccn2Cc2ccc(F)cc2Cl)=N1 | -1.8 | -3 | -7 | -6% | -12
CC(C)Cc1ccc(C(C)C(=O)Nc2nccs2)cc1 (stereo not given) | x | 3 | 1 | 18% | -6
Nc1cc(N)nc(SCC(=O)N2CCc3ccccc32)n1 | 0.6 | 7 | -2 | -14% | 8
CC(=O)Cc1nsc(NC(=O)c2oc(-c3ccccc3Cl)cc2C)n1 | 0.8 | 9 | 2 | 11% | x
Cn1cc(CCCC(=O)NCc2ccccc2)c2ccccc21 | 5.4 | x | -1 | x | x
Cc1cc(C)cc(NC(=O)C2CCN(S(=O)(=O)c3c(C)n[nH]c3C)CC2)c1 | 0.2 | -2 | -2 | 1% | -30
O=C(N/N=C/c1ccc([N+](=O)[O-])cc1)c1ccccc1OCc1ccccc1 | -0.1 | x | -3 | x | x
CC1Cc2ccccc2N1C(=O)CN1C(=O)C(=O)N(Cc2ccccc2)C1=O (stereo not given) | 2.4 | 6 | -2 | -1% | -15
COc1ccc(C2C(C(C)=O)=C(O)C(=O)N2c2nccs2)c(OC)c1 (stereo not given) | -1.4 | 0 | 4 | 0% | x
O=C(NCCCCNC(=O)c1cccs1)c1cccs1 | 4.3 | 1 | 5 | 0% | -14
COC(C(=O)Nc1ccc(F)c(F)c1)c1ccccc1 (stereo not given) | 1.3 | x | -5 | -11% | 3
O=C(NNC(=O)c1ccccc1C(=O)O)c1ccc(-c2ccccc2)cc1 | 1.0 | -8 | -6 | -13% | x
CCC(C)Nc1nc2ccccc2n2c(C)nnc12 (stereo not given) | 0.7 | x | 0 | x | x
CCOc1ccc(CN(C)CC(=O)Nc2ccc3c(c2)CCC3)cc1OC | 2.6 | 19 | 3 | 0% | x
CC1(C)COC(/C=C/c2cccc([N+](=O)[O-])c2)=N1 | 0.3 | 21 | 17 | -3% | x
NC(=O)COC(=O)CC12CC3CC(CC(C3)C1)C2 | x | 0 | -1 | -4% | x
Cn1c(SCC(=O)Nc2ccc(C(N)=O)cc2)nnc1-c1cccs1 | -0.3 | x | -6 | x | x
CCNc1nc(NC(C)(C)C)nc(SC(C(C)=O)C(C)=O)n1 | 5.3 | 9 | -4 | 0% | -53
COc1cccc(NC(=O)c2ccc(N3C(=O)C4CC=C(C)CC4C3=O)cc2)c1 (stereo not given) | 2.6 | x | 0 | x | x
CCCC1=C(C(=O)OCC)C2(C(=O)Nc3ccccc32)C(C#N)=C(N)O1 (stereo not given) | 4.4 | 2 | 0 | -1% | -32
CCN(C(C)=O)c1cccc2ccccc12 | 0.4 | 3 | 27 | -8% | -18
COc1ccc(S(=O)(=O)N(C)C)cc1NC(=O)[C@H](Cc1ccccc1)N1C(=O)c2ccccc2C1=O | 0.8 | 9 | -2 | -26% | -26
O=C(CN1CCN(C(=O)c2ccccc2)CC1)Nc1ccc(Cl)cc1F | 0.5 | x | -2 | x | x
COc1ccc(NC2=NCC(=O)N2Cc2cccs2)cc1 | 0.6 | 11 | 2 | 3% | -7
Cc1ccc(NC(=O)CN(C)S(=O)(=O)c2cccc3cccnc23)c(C)c1 | -0.7 | x | -4 | 5% | x
COc1ccc(-c2cc(C(=O)NCC(c3ccccc3)N(C)C)c3ccccc3n2)cc1OC (stereo not given) | 0.5 | x | 8 | x | x
COc1ccc(-c2nc(CS(=O)CC(=O)NCc3ccc(Cl)cc3)c(C)o2)cc1 (stereo not given) | 8.8 | 7 | 11 | 5% | x | Arbovirus anti repeat=-1
COc1cc(/C=N/OCC(=O)Nc2ccc(OC(F)F)cc2)ccc1OCc1ccccc1 | -2.6 | -4 | -5 | 28% | -6
CCOC(=O)Cc1ccc(NC(=O)c2ccccc2Br)cc1 | -3.3 | -2 | -2 | 7% | x
O=C(OCc1nnc(-c2ccccc2)o1)c1cc(S(=O)(=O)N2CCOCC2)c(Cl)cc1Cl | x | 3 | -13 | -1% | -52
CNC(=O)CSc1nnc(C2CC2)n1-c1ccccc1 | 1.6 | 4 | 1 | -12% | x
Nn1c(=O)c2ccccc2n2c(SCc3ccccc3)nnc12 | 1.7 | 1 | -5 | 2% | -82
Cc1noc(C)c1COc1ccc(C(=O)NCCc2ccccn2)cc1 | -0.1 | -9 | 1 | -1% | x
CC(=O)N/C(=N/c1nc(C)cc(C)n1)Nc1ccc(F)cc1F | 1.7 | x | 1 | x | x
CCCn1c(CN2CCN(C)CC2)nc2ccccc21 | x | 2 | 0 | -3% | -19
COC(=O)C1C(c2ccccc2)NC(=O)NC1(O)C(F)(F)Cl (stereo not given) | x | 6 | -4 | 4% | x
